MLL AF4-AF9 inh = blocks AF4 peptide binding to human AF9; P42568; AlphaScreen, biotin-AF4 peptide binding to FLAG-AF9; inhibition, % at 10 µM; 350,000 tested, 0.47% active; AID 651704;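 active means every replicate reaching a set inhibition limit, whatever the replicate mean, cut at about 25% in these data; inconclusive means mean inhibition reaches that limit but some replicates miss it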;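 further: 0% = plate neutral control median and 100% = total signal loss; the record names both 10 and 1 µM as test concentration; the first replicate is given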
Target sequence (P42568 whole entry, looked up): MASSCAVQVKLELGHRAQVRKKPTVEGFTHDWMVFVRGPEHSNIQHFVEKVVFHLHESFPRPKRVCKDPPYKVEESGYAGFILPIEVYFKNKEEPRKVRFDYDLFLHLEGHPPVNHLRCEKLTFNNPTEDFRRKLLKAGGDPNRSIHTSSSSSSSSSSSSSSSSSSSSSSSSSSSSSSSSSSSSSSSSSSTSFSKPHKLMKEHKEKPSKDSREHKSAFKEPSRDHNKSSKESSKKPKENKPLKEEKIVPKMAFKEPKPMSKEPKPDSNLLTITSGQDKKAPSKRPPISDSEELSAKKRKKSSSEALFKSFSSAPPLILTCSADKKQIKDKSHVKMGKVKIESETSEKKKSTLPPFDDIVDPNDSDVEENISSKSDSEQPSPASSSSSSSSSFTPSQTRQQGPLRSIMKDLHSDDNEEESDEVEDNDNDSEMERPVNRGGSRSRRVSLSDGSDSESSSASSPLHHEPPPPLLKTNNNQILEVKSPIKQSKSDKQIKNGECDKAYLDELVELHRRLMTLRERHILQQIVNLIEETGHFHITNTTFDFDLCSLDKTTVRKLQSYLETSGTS
Beta cell apopt = blocks beta cell apoptosis. INS-1E cytokine-induced death, ATP luminescence, 48 h; percent of positive-control rescue, neutral wells zero. protection from apoptosis, % (test concentration not listed). 300,000 tested, 0.8% active. AID 435005;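 active means all replicates at 75% or more, or half of them and the mean; inconclusive means half reach 75% but not the mean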;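 further: 0% = cytokine-treated negative control wells and 100% = positive control rescue; higher means more ATP so stronger rescue from cytokine killing; wells of about 40 µL received 100 nL stock; the first replicate is given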
T cruzi inh = T. cruzi replication inhibition | T. cruzi beta-gal in NIH3T3, luminescence, 90 h | inhibition, % (concentration not given with the values) | 300,000 tested, 1.4% active;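 active means mean inhibition across valid replicates above about 55%, limit read from the data; inconclusive means mean below that limit but half or more replicates reach it; inactive means mean below it, under half of replicates reach it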;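 further: signal also drops with host cell toxicity which is not excluded here; 0% = plate median of DMSO wells and 100% = zero luminescence signal; higher percent means less beta-gal luminescence so fewer parasites; stock transfer was 50 nL into about 50 µL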
FGF22 binding = binders of recombinant human FGF22 by thermal shift. 340,000 tested, 1.5% active. Q9HCT0. AID 651658. SYPRO orange fluorescence; percent of sucrose octasulfate shift, DMSO zero. calls only at 9.99 µM;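 active means melting point raised past a set limit in the mean and every replicate; inconclusive means no clear call; three in four hits are not shown here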
Target sequence (Q9HCT0 whole entry, looked up): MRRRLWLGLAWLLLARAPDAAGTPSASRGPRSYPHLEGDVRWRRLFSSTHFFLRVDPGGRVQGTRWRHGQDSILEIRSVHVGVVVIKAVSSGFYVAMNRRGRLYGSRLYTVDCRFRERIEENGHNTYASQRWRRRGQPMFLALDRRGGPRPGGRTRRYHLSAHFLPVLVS
Ecoli rRNA inh = inhibits bacterial ribosomal RNA function over humanized ribosomes; E. coli WT GFP vs humanized-ribosome RFP mutants, fluorescence, 24 h; active compounds read low; DMSO median 0, no signal -100; GFP signal change (wild-type ribosome), % (no concentration beside the values); 350,000 tested, 1.6% active;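 active means significant combined selectivity score with lowered wild-type GFP, culture density cut under 30%, mutant RFP and density less affected; inactive means any of these conditions unmet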; further: one replicate is shown; some compounds called inactive have numbers as strong as hits
RanGTP-Impb inh = inhibitors of RanGTP-importin-beta interaction, primary screen, biochemical, FRET, CFP-Ran, YFP-importin-beta, homogeneous; 300,000 tested, 1.1% active; inhibition, % (test concentration not listed); cell-free CFP-Ran/YFP-importin-beta FRET ratio;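 active means most replicates above 15%; inconclusive means exactly half above 15%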;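 further: 0% = DMSO wells and 100% = Ran loaded with GDP instead of GTP; wells of about 40 µL received 100 nL stock; the first replicate is given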
ALR H2O2 inh = blocks human ALR sulfhydryl oxidase activity; P55789; purified ALR, DTT oxidation, H2O2 HRP-luminol luminescence; inhibition, % (no concentration beside the values); 290,000 tested, 3.8% active; AID 485317;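 active means mean and each replicate at 75% or more; inconclusive means only one of the two met; inactive means neither met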;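 further: stock transfer was 7.5 nL into about 7.5 µL; 0% = neutral wells and 100% = wells with inactivated enzyme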
Target sequence (P55789 whole entry, looked up): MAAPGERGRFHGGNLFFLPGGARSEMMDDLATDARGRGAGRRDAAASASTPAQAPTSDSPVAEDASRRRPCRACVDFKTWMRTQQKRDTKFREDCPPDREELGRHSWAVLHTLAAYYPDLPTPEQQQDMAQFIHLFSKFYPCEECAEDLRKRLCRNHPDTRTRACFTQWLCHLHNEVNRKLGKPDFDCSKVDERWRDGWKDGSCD
Calb FLC = affects C. albicans growth with fluconazole | C. albicans CaCi-2 (fluconazole-resistant clinical isolate) + fluconazole, Alamar Blue growth, 48 h | growth inhibition, % (test concentration not listed) | 300,000 tested, 0.57% active;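 active means most replicates above 75%; inconclusive means exactly half above 75%; inactive means most below 75%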;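 further: all wells also contain fluconazole at 8 µg/ml as a sub-toxic cotreatment; 0% = median of DMSO wells and 100% = median of geldanamycin control wells; wells of about 8 µL received 7.5 nL stock; the first replicate is given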
Ecoli rRNA inh OD600 = second read-out of Ecoli rRNA inh, no call of its own (marks repeat the call); OD600 change, %; measured here: OD600 growth;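 optical density of the mix in the first replicate; 0 = DMSO median and -100 = no signal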
Ecoli rRNA inh RFP = recorded beside Ecoli rRNA inh, whose call it bears; RFP signal change, %; measured here: RFP humanized mutant strains;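 first replicate; 0 = DMSO median and -100 = no signal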
* hit, by the source's call; i = inactive; ? = inconclusive; / = not tested or not shown. An excerpt; the hit share may differ from the screen's.

SMILES	MLL AF4-AF9 inh	Beta cell apopt	T cruzi inh	FGF22 binding	Ecoli rRNA inh	Ecoli rRNA inh OD600	Ecoli rRNA inh RFP	RanGTP-Impb inh	ALR H2O2 inh	Calb FLC
COC(=O)/C=C1\SC(=Nc2ccc(Cl)c(Cl)c2)NC1=O	-0.3	-1.5	5.9	i	8.8	9.0	1.2	-2.4	7.2	-14.1
CCCCNC(=O)Nc1nnc(SCC(=O)OCC)s1	0.3	-2.8	-4.6	i	-2.7	-1.9	-0.8	0.0	4.3	12.4
COc1ccc(C(C)=O)cc1CSc1nnc(C)n1-c1ccccc1	/	3.2	-7.9	/	/	/	/	-2.5	0.8	-1.3
COc1cc(N)ccc1NC(=O)c1cccs1	/	0.1	1.4	/	/	/	/	-2.4	98.8*	-1.1
NC(=O)C1CCN(C(=O)COc2ccc(S(=O)(=O)NC3CCCC3)cc2)CC1	1.2	5.1	12.2	i	/	/	/	-1.2	2.0	-2.2
COc1cc(SC)ccc1C(=O)Nc1ccc(Br)cn1	0.4	4.5	21.0	i	/	/	/	-1.9	-6.2	-10.3
Cc1cccc(-n2nnnc2SCC(=O)Nc2cccc(S(N)(=O)=O)c2)c1	6.8	0.5	4.1	i	-15.9	-7.5	1.2	-0.8	0.3	4.8
CC(C)(C)C(=O)Nc1cccc(C(=O)Nc2cc(C(=O)O)cc(C(=O)O)c2)c1	-68.1	-3.1	-13.2	i	17.1	15.0	0.1	0.4	-1.9	-3.5
COc1ccc(N2CCN(C(=O)CSc3nnc(NC(=O)C4CC4)s3)CC2)cc1	2.3	0.2	-9.2	i	4.4	4.6	2.3	-2.4	48.5	?
N#CC1=C2SCN(c3ccccc3)CN2C(=O)CC1c1c(Cl)cccc1Cl (stereo not drawn)	2.2	8.4	17.4	i	-0.3	1.0	-3.1	1.6	-4.5	3.1
COc1ccc(/C=C/C(=O)NC(=S)NN2CCCCC2c2cccnc2)cc1OC (stereo not drawn)	3.2	-11.5	52.2	i	0.6	-2.3	-1.5	-0.6	1.7	-2.9
COc1cccc2c1C(CO)N1C(C#N)C3CC(C(=O)O)C(C1C2)N3C (stereo not drawn)	-2.7	1.8	/	i	4.5	-20.2	-19.9	/	-8.6	/
Cc1nc(-n2nnc3cc(C)c(C)cc32)c2c3c(sc2n1)CCCC3	/	-6.8	13.2	/	/	/	/	-0.6	-2.3	-14.7
Cc1ccccc1OCCNc1cc(N2CCN(CCO)CC2)ccc1[N+](=O)[O-]	/	-5.0	46.3	/	/	/	/	?	-16.6	2.2
Cc1ccc(S(=O)(=O)N2[C@@H](c3ccccc3F)C(C(=O)O)=CC[C@H]2c2cccs2)cc1	-1.5	0.7	/	i	-16.4*	2.6*	3.3*	/	-0.6	/
COc1ccc(NC(=O)O/N=C/c2ccccc2)cc1	1.0	0.5	-6.8	i	2.0	4.4	-3.7	-3.5	-35.2	11.3
CC1CCCCC1NC(=O)C1Cc2ccccc2CN1S(C)(=O)=O (stereo not drawn)	/	-3.8	3.5	/	/	/	/	-1.0	-1.0	-6.6
CC(C)c1nnc(SCc2ccc(CSc3nnc(C(C)C)n3N)cc2)n1N	/	-1.2	-13.7	/	/	/	/	2.1	-3.3	-8.0
CC(OC(=O)c1snc(C(=O)NC2CCCCC2)c1N)C(=O)NC1CCCCC1 (stereo not drawn)	/	-1.3	3.7	/	/	/	/	1.1	-0.2	7.2
COC(=O)N1c2ccccc2CCc2ccccc21	-5.5	-7.3	-2.9	i	-6.3	-4.8	2.1	2.0	-3.8	5.7
CC(C)Nc1nnc(SCC(=O)Nc2ccc(F)cc2)s1	-1.5	-0.3	-5.6	i	-5.0	10.5	3.7	-0.6	-23.0	-3.3
CC1CCN(C(=O)CSc2nnc(CNC(=O)c3c(F)cccc3F)o2)CC1	-3.3	-3.8	-4.4	i	18.4	14.1	3.3	-7.0	-2.8	4.0
NC(=O)c1sc2nc3c(c(-c4ccccc4)c2c1N)CCC3	/	-30.6	4.8	/	/	/	/	-0.9	-35.2	-1.8
Cc1cc(CNC(=S)Nc2cccc(Cl)c2Cl)nn1C	-1.5	-1.8	-10.1	i	-11.2	-16.6	-3.2	-0.6	1.1	-28.4
O=C(NC(=S)Nc1ccc2[nH]c(=O)[nH]c2c1)c1cccc(F)c1	5.7	3.6	1.4	i	12.3	12.5	-1.5	-4.7	/	-7.5

Already shown: three of the compounds above.
SMILES	MLL AF4-AF9 inh	Beta cell apopt	T cruzi inh	FGF22 binding	Ecoli rRNA inh	Ecoli rRNA inh OD600	Ecoli rRNA inh RFP	RanGTP-Impb inh	ALR H2O2 inh	Calb FLC
NC(=O)c1sc2nc3c(c(-c4ccccc4)c2c1N)CCC3	/	-30.6	4.8	/	/	/	/	-0.9	-35.2	-1.8
Cc1cc(CNC(=S)Nc2cccc(Cl)c2Cl)nn1C	-1.5	-1.8	-10.1	i	-11.2	-16.6	-3.2	-0.6	1.1	-28.4
O=C(NC(=S)Nc1ccc2[nH]c(=O)[nH]c2c1)c1cccc(F)c1	5.7	3.6	1.4	i	12.3	12.5	-1.5	-4.7	/	-7.5

Next structures
SMILES	MLL AF4-AF9 inh	Beta cell apopt	T cruzi inh	FGF22 binding	Ecoli rRNA inh	Ecoli rRNA inh OD600	Ecoli rRNA inh RFP	RanGTP-Impb inh	ALR H2O2 inh	Calb FLC
COC(=O)c1cn(NC(=O)Cc2c(F)cccc2Cl)c(=O)c2ccccc12	1.4	4.4	-7.5	i	5.9	4.9	1.8	?	-1.9	4.6
O=C(NCc1ccccc1Cl)c1cnccn1	/	/	-0.2	/	/	/	/	1.4	-12.6	2.9
COc1ccc(Oc2c(C=O)c3ccccc3n2C)cc1	/	-25.9	-13.5	/	/	/	/	-1.6	-1.7	0.2
CCN1CCN(C(=O)CCc2nnc(CCc3ccc(OC)cc3)o2)[C@@H](C)C1=O	-2.2	3.8	5.4	i	2.0	5.6	1.6	-1.6	0.1	23.6
CCOC(=O)c1ccc(NC(=S)N2CCC(C(N)=O)CC2)cc1	/	2.4	-25.5	/	/	/	/	-2.1	-6.6	-8.8
COc1ccc(N2CCN(C(=O)COC(=O)c3cc(S(=O)(=O)N(C)C)ccc3N3CCCC3)CC2)cc1	-8.0	6.4	16.6	i	-2.1	1.3	2.1	/	3.7	-2.3
CN1CCN(S(=O)(=O)c2cccc(C(=O)N3CCN(c4ccccc4)CC3)c2)CC1	-0.2	-5.3	/	i	14.2	8.9	0.6	/	36.6	/
Cc1cc(Cl)ccc1NC(=O)COC(=O)c1c(C)noc1C	0.0	-6.1	/	i	/	/	/	/	-2.0	/
O=C(c1cccc(F)c1F)N1CCCc2ccccc21	3.5	-4.4	2.6	i	-4.4	-10.8	-3.6	1.2	-4.7	-14.7
Cn1c(=O)c2ncn(CC(=O)NCCC3=CCCCC3)c2n(C)c1=O	/	-10.8	-13.2	/	/	/	/	3.9	/	6.8
CCOc1ccc(C(=O)C2CCN(CC(=O)Nc3ccccc3N3CCOCC3)CC2)cc1	/	8.1	17.6	/	/	/	/	2.2	-6.1	-36.9
CC1(C)CC(=O)C2=C(C1)N(c1ccccc1)C(=O)CC2c1ccsc1 (stereo not drawn)	1.0	-1.0	7.8	i	1.9	-4.3	2.9	0.4	/	1.7
N#C/C(=C(/O)COC(=O)c1ccc(Cl)c(S(=O)(=O)N2CCOCC2)c1)c1nc2ccccc2[nH]1	3.5	/	-7.2	i	-3.0	20.5	3.7	2.9	-8.2	-0.2
CCOc1cc(CNCc2cccs2)cc(Br)c1OCC	/	6.0	4.2	/	/	/	/	3.1	-7.0	12.9
O=C(Nc1cccc(-c2nnc(-c3ccccc3)o2)c1)c1ccc(Br)o1	5.1	4.6	-10.7	i	-15.7	-11.3	-0.5	1.5	1.1	37.2
CCC1SC2=NCN(c3ccccc3)CN2C1=O (stereo not drawn)	/	-1.6	-2.8	/	/	/	/	0.2	/	8.3
CC1=C(C(=O)Nc2ccccc2)C(c2cccc([N+](=O)[O-])c2)Nc2nc3ccccc3n21 (stereo not drawn)	/	-4.0	1.5	/	/	/	/	-2.1	3.9	-15.5
COc1ccc(C2/C=C\CN(C(=O)c3ccc(C)cc3)[C@H](Cc3ccccc3)C(=O)N2Cc2ccc(F)cc2)cc1 (stereo partly drawn)	/	77.9*	49.8	/	/	/	/	-6.0	1.3	11.2
CC(C)c1ccc(NC(=O)NCc2ccc(F)cc2)cc1	0.4	-4.4	20.6	i	-28.1	-31.7	-6.4	4.6	-1.5	-18.0
O=C(CC1SC(=NCCc2ccccc2)N(/N=C/c2cccs2)C1=O)Nc1ccc(Cl)cc1 (stereo not drawn)	-0.6	14.3	49.4	i	5.7	7.6	-5.1	-0.8	-1.4	-16.4
O=C(O)Cc1ccc2ocnc2c1	/	-4.9	-9.9	/	/	/	/	0.1	64.6	6.7
CNC(=S)c1cc(C(C)(C)C)c(O)c(C(C)(C)C)c1	-3.1	-7.4	3.8	i	-20.6*	-10.6*	4.9*	2.9	11.2	3.2
COC(=O)C1=C(C)N(Cc2ccco2)C(=O)/C1=C\c1ccc(N(C)C)cc1	/	-0.2	11.6	/	/	/	/	-1.0	5.0	45.0
O=C(CNC(=O)c1ccc(F)cc1)N/N=C/c1cccnc1	1.1	-5.8	-9.0	i	7.9	10.9	2.2	4.4	/	-3.6
Cc1ccc(C)c(S(=O)(=O)Nc2ccc(O)c3ccccc23)c1	4.3	98.5*	-7.1	i	-17.4	-17.0	1.4	1.4	85.4*	4.7

4 entries from above, ordered by their value in Ecoli rRNA inh OD600, highest first.
SMILES	Ecoli rRNA inh OD600
CN1CCN(S(=O)(=O)c2cccc(C(=O)N3CCN(c4ccccc4)CC3)c2)CC1	8.9
O=C(CC1SC(=NCCc2ccccc2)N(/N=C/c2cccs2)C1=O)Nc1ccc(Cl)cc1 (stereo not drawn)	7.6
CCN1CCN(C(=O)CCc2nnc(CCc3ccc(OC)cc3)o2)[C@@H](C)C1=O	5.6
O=C(Nc1cccc(-c2nnc(-c3ccccc3)o2)c1)c1ccc(Br)o1	-11.3

Carrying on.
SMILES	MLL AF4-AF9 inh	Beta cell apopt	T cruzi inh	FGF22 binding	Ecoli rRNA inh	Ecoli rRNA inh OD600	Ecoli rRNA inh RFP	RanGTP-Impb inh	ALR H2O2 inh	Calb FLC
O=C(O)CC/C(=C\c1cccc(NC(=O)c2ccccc2Cl)c1)c1nc2ccccc2s1	2.6	0.7	-11.0	i	-23.0	-12.6	3.3	-2.4	5.0	1.7
COc1cccc(C(=O)CC(=O)C(=O)Nc2ccc(C)cc2Cl)c1	-6.4	-4.6	-14.5	i	-14.9	-9.9	-5.0	-1.2	-6.4	-0.8
O=C(c1ccc(Cl)cc1)c1cc([N+](=O)[O-])ccc1N1CCOCC1	11.7	32.2	13.1	i	-8.0	-16.7	-7.1	0.3	/	?
NNC(=O)c1cccc(COc2ccc3c(c2)CCC3)c1	/	/	14.1	/	/	/	/	-1.7	-7.0	-25.2
Cn1c(C(=O)NCC2CCCO2)cc2c(=O)n3ccccc3nc21 (stereo not drawn)	/	-3.8	-9.4	/	/	/	/	2.1	/	-3.1
Cc1cccc(NS(=O)(=O)c2ccc3c(c2)oc(=O)n3C)c1C	1.1	-2.2	7.0	i	-9.2	-10.0	-1.5	0.9	-1.3	4.0

High-throughput results from PubChem.
